MT1-MMP promoter: inhibitors of MT1-MMP promoter transcription, cell-based, luciferase reporter, luminescence (AID 618). MT1-MMP promoter luciferase reporter cells, luminescence. calls from a first round at 10 µM; hits with a dose series show EC50 in µM. hit rate 0.62% among 87,000;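 active means over half of the reporter light lost at 10 µM or EC50 under 50 µM; inactive means the rest and hits that failed the dose series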;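 further: actives suppress MT1-MMP promoter-driven transcription so potencies describe inhibitors; HT1080 fibrosarcoma cells; overnight exposure; toxic or luciferase-blocking compounds were not removed from the actives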
Hsc70 ATP site: Hsc70 inhibitors, probe displacement, primary screen, biochemical, fluorescence polarization (AID 568); Hsc70 fluorescence polarization, probe displacement; higher % means a stronger effect; strong numbers were not always called active; displacement, % at 20 µM; hits with a dose series show IC50 in µM; 83,000 tested, under 10 active;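 active means displacement above 50% without optical interference and an IC50 on retest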;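 further: ATPase domain with a fluorescein-tagged ATP probe; 0% = vehicle and 100% = excess ADP; read after one hour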
WNV NS2B-NS3 inh: blocks West Nile virus NS2B-NS3 protease activity. P06935. WNV NS2B-NS3 protease, fluorogenic substrate Ex360/Em465; active compounds read low. z-score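 (tested at a level between 10 and 100 µM)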. hit rate 0.18% among 65,000. AID 577;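 active means z-score at -3 or under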;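 further: score is relative to mean and spread of the compound wells of a plate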
Target sequence (P06935 1371-1501 limits assumed): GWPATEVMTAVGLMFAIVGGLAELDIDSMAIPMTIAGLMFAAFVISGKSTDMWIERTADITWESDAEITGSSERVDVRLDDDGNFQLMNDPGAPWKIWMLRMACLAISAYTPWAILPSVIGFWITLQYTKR
Target sequence (P06935 1502-1679 limits assumed): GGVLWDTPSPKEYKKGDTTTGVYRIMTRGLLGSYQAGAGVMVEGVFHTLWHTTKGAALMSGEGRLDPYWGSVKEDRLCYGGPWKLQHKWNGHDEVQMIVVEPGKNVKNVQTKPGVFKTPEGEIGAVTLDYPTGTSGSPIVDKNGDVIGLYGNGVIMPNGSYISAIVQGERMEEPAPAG
Active calls of the source: *; i = inactive; . = no result given. Some of the compounds tested; rates above refer to the full screens.

SMILES | MT1-MMP promoter | Hsc70 ATP site | WNV NS2B-NS3 inh
CC(C)(C)n1nnnc1C(c1cccs1)N1CCN(c2ccccc2)CC1 (stereo not given) | i | 0.5% | .
COC(=O)c1ccccc1NC(=O)CSc1ccccc1 | i | 0.2% | 0.62
Cc1cc(C)n(-c2nc(O)cc(=O)[nH]2)n1 | i | -6.6% | .
Nn1c(SCC(=O)Nc2cccc(F)c2)nnc1C1CCCCC1 | i | 1.7% | -2.22
CCc1nc(SCc2nc3ccccc3[nH]2)c2oc3ccccc3c2n1 | i | 0.6% | .
COc1ccc(C(CC(=O)O)NC(=O)COc2ccccc2)cc1 (stereo not given) | i | 0.5% | -0.55
O=C(NCc1ccc(N2CCCC2=O)cc1)c1cn(Cc2ccccc2)nn1 | i | 3.8% | 2.15
O=c1cc(O)n(-c2ccccc2F)c(=S)[nH]1 | i | -0.1% | 0.3
CC(=O)N(c1ccc(Br)cc1)C1C=CS(=O)(=O)C1 (stereo not given) | i | -1.9% | -0.74
O=C1c2ccccc2C(=O)N1CC(O)Cn1nnc2ccccc21 (stereo not given) | i | 1.1% | -0.5
O=S(=O)(NCc1ccccn1)c1ccc(Br)s1 | i | -2.9% | -0.86
O=C(CSc1nnc(CNc2ccc(Cl)cc2)o1)Nc1nc2ccccc2s1 | i | -2.6% | 0.25
O=C(Nc1ccccc1N1CCOCC1)c1ccc(Br)o1 | i | -2.2% | -0.34
Cc1ccc(S(=O)(=O)Oc2ccc(/C=C(/NC(=O)c3ccccc3)C(=O)Nc3ccccc3)cc2)cc1 | i | 2.7% | .
Cc1[nH]c2ccccc2c1C(=O)CSc1nncn1C | i | 3.4% | .
COc1ccc(CCNC(=O)C2CCN(S(=O)(=O)N3CCOCC3)CC2)cc1OC | i | -3.9% | -1.14
Cc1cccn2c(=O)c3cc(C#N)c(=O)n(Cc4cccnc4)c3nc12 | i | 8.3% | 2.94
CCCCC(C(=O)O)C(C)CC(=O)Nc1cccc(C(=O)O)c1 (stereo not given) | i | -6.6% | -0.04
CCOC(=O)c1ccc(NC(=O)CSc2nnc(CNc3ccc(C)cc3)n2C)cc1 | i | 0.7% | .
CC(C)(C)NS(=O)(=O)c1ccc(NS(=O)(=O)c2ccc(F)cc2)cc1 | i | 9.5% | 0.18
O=C(NCCN1CCOCC1)c1cc2cc(Br)ccc2oc1=O | i | -2.3% | .
COc1cccc(CN2C(=O)CCC2(C)C(=O)NC2CCCCCC2)c1 (stereo not given) | i | 0.8% | -0.06
COc1nnc(-c2ccc(C)c(S(=O)(=O)NCCO)c2)c2ccccc12 | i | 0.9% | 0.36
CC1CCN(C(=O)c2cccc(S(=O)(=O)N3CCCCC3)c2)CC1 | i | -4.4% | 0.39
Cc1nn(C)c(C)c1N1C(=O)c2cccc3c(Br)ccc(c23)C1=O | i | -0.5% | .
CC1(C)CC(O)C(CCC(O)c2ccccc2)C(C)(C)N1 (stereo not given) | i | 1.2% | 0.13
CC(C)C(c1nnnn1CCc1ccccc1)N1CCN(C(=O)c2ccco2)CC1 (stereo not given) | i | -3.3% | -0.11
CC(=O)/C=C1/SC(CC(=O)O)C(=O)N1c1ccccc1 (stereo not given) | i | -4.7% | .
O=C(C1CC1)N1CCc2cc(Br)cc(S(=O)(=O)NCCN3CCOCC3)c21 | i | -6.0% | 2.65
CCC(C)N1CCN(C(=O)c2cccs2)CC1 (stereo not given) | i | 0.4% | .
c1cncc(-c2nnc3n2CCC3)c1 | i | 4.0% | 1.05
CCOC(=O)C1=C(CNCCc2ccc(Cl)cc2)NC(=O)NC1c1ccc2c(c1)OCO2 (stereo not given) | i | -1.5% | -0.95
CCOC(=O)C1CCN(c2ncnc3c2oc2ccc(Cl)cc23)CC1 | i | 3.1% | 0.72
CN1C(=O)CC(C(=O)O)SC1=Nc1cc(Cl)c(O)c(Cl)c1 (stereo not given) | i | -3.2% | .
Cc1ccc(NC(=O)CS(=O)CC(=O)N(c2ccc(C)cc2)C(C)C(=O)NC2CCCCC2)cc1 (stereo not given) | i | 3.0% | .
N#Cc1cccc(NC(=O)CC2CCCCC2)c1 | i | -3.9% | 0.76
C=C(C)Cn1c(=S)[nH]c2ccccc2c1=O | i | -1.4% | .
Cc1cc(C)n(-c2nc(-n3nc(C)cc3C)c3c4c(sc3n2)COC(C)(C)C4)n1 | i | -2.1% | 0.12
O=c1ccc2ccc(OCc3nnc(-c4ccccc4Br)o3)cc2o1 | i | -8.4% | 0.42
CC1(C)Cc2c(C#N)c(OCC(=O)c3ccc(Cl)cc3)nc(-c3ccco3)c2CO1 | i | 2.4% | -0.84
Cc1ccc(S(=O)(=O)N2CCC(C(=O)Nc3ccc4c(c3)OCO4)CC2)cc1 | i | 3.1% | .
CCOC(=O)c1sc(NC(=O)C(CC)Sc2nnc3c4ccccc4n(CC)c3n2)nc1C (stereo not given) | i | 2.2% | 0.34
CC(=O)c1ccc(NC(=O)CSc2nc3nc(C)cc(C)n3n2)cc1 | i | 4.9% | 1.21
COC(=O)[C@H](CCSC)NC(=O)Nc1ccc(OC)cc1 | i | -0.1% | 0.34
Cc1noc(C)c1S(=O)(=O)N(CCc1ccccc1)Cc1ccccc1 | i | -2.3% | -1.09
c1ccc2c(c1)oc1c(Nc3ccc(CN4CCOCC4)cc3)ncnc12 | i | -9.9% | -0.92
CCn1c(C)nc2cc(S(=O)(=O)C(F)F)ccc21 | i | 4.6% | .
COC(=O)c1ccc(NC(=O)C2CCCCC2C(=O)O)cc1 (stereo not given) | i | 2.5% | .
Cc1ccc(C(=O)O)cc1S(=O)(=O)NCC1CCCO1 (stereo not given) | i | 5.2% | -0.28
COc1ccccc1CN(Cc1nc2ccccc2c(=O)[nH]1)C(=O)Nc1ccccc1C | i | 2.3% | .
Cc1ccc(-n2c(SCC(N)=O)nnc2-c2ccccn2)cc1C | i | -0.8% | -0.72
COc1ccc(-c2noc(-c3ccccc3C(=O)NCc3ccco3)n2)cc1 | i | 3.7% | -0.05
CCC(C)(C)NC(=O)C(OC(=O)c1cc2sccc2n1C)c1ccc(OC)cc1 (stereo not given) | i | -1.7% | -0.98
COc1ccc(OC)c(NC2=NC3(CCCC3)N=C(N)N2)c1 | i | 0.9% | -0.03
C=CCn1c(SCC(=O)NCc2ccco2)nc2sc3c(c2c1=O)CCCC3 | i | 2.2% | .
COC(=O)[C@H](C)NC(=O)NCc1ccco1 | i | -1.8% | -0.48
CCCS(=O)(=O)N1CCCC(C(=O)NCCN(C)Cc2ccccc2)C1 (stereo not given) | i | 0.9% | -0.54
O=C(Nc1cccc(Br)c1)c1cc2ccccc2o1 | i | -4.7% | -0.74
COc1cccc(N2CCN(c3ncccn3)CC2)c1 | i | -1.7% | 0.24
Cc1ccnc(NS(=O)(=O)c2ccc(NC(=O)c3ccc(C)o3)cc2)n1 | i | -6.5% | .

The listing continues.
SMILES | MT1-MMP promoter | Hsc70 ATP site | WNV NS2B-NS3 inh
COc1ccc(NC(=O)N2CCC(C(=O)c3ccc(F)cc3)CC2)cc1 | i | 3.6% | .
COc1ccc2c(c1)OC(O)(C(F)(F)F)CC2=O (stereo not given) | i | 6.9% | 0.18
COc1cccc(Nc2c(F)c(OC)c(F)c(F)c2C(=O)O)c1 | i | -0.5% | -0.86
CC1(C)CC(=O)C=C(Nc2cccc(O)c2)C1 | i | 3.9% | -0.48
CC(C)COC(=O)CCn1[nH]c(=O)c2ccccc2c1=O | i | 3.8% | -0.46
Nn1cc(-c2ccccc2)nc1SCC(=O)NCCN1C(=O)CSC1=O | i | -0.4% | -1.07
COc1c(C(C)C)cc(NC(C)=O)cc1C(C)C | i | 2.5% | .
CCOc1ncccc1C(=O)N1CCN(Cc2ccc3c(c2)OCO3)CC1 | i | -2.4% | .
COc1ccc(OC)c(NC(=O)CSc2nnc(Cc3cccn3C)n2CCc2ccccc2)c1 | i | -3.3% | -1.4
CC12C=CC3(CN(Cc4ccccc4)C(=O)C3C1C(=O)NC1CC1)O2 (stereo not given) | i | -0.7% | -0.54
Cc1[nH]c(=S)[nH]c(=O)c1Cc1ccccc1 | i | 1.6% | 1.17
COC(=O)c1cc(=O)nc2sc(-c3ccc(F)cc3)nn12 | i | -3.3% | 0.61

Quoted at random: 3 compounds from above.
SMILES | MT1-MMP promoter | Hsc70 ATP site | WNV NS2B-NS3 inh
COC(=O)c1cc(=O)nc2sc(-c3ccc(F)cc3)nn12 | i | -3.3% | 0.61
COc1ccc(NC(=O)N2CCC(C(=O)c3ccc(F)cc3)CC2)cc1 | i | 3.6% | .
COc1cccc(Nc2c(F)c(OC)c(F)c(F)c2C(=O)O)c1 | i | -0.5% | -0.86

Carrying on:
SMILES | MT1-MMP promoter | Hsc70 ATP site | WNV NS2B-NS3 inh
CN(c1cccc(NS(=O)(=O)c2cccs2)c1)S(C)(=O)=O | i | 7.7% | 0.08
COc1cc(C2NC(=O)NC(C)=C2C(=O)OCc2ccc(C)cc2)cc(OC)c1O (stereo not given) | i | -5.6% | 0.77
O=C(CSc1nc2ccccc2s1)Nc1ncccn1 | i | -6.8% | 0.39
Cc1nc(SCC(=O)N2CCC(C(N)=O)CC2)n[nH]1 | i | 2.2% | 1.3
COc1cc(C(=O)N2CCC(NC(=O)C(Cc3ccc(C)cc3)NC(C)=O)CC2)cc(OC)c1OC (stereo not given) | i | 2.4% | -0.95
CCOc1ccccc1NC1c2ccccc2C(=O)N1c1ccc(C)cn1 (stereo not given) | i | 3.2% | -0.04
CC1Cc2nc(SCC(=O)NCC3CCCO3)n(Cc3ccccc3)c(=O)c2S1 (stereo not given) | i | 4.1% | -0.74
O=C1Nc2c(Br)cc(Br)cc2C1(O)N1CCOCC1 (stereo not given) | i | -2.2% | 1.78
O=C(OC(C(=O)NC1CCCCC1)c1ccccc1)c1ccco1 (stereo not given) | i | -3.4% | .
Cc1c(C(=O)Nc2ccc3c(c2)OCO3)sc2ncn(CC(=O)N3CC(C)CC(C)C3)c(=O)c12 (stereo not given) | i | 0.2% | .
COc1ccc(CNC(=O)CSc2nc3nc(C)cc(C)n3n2)cc1 | i | -3.4% | 0.75
CCCC(=O)c1cc2cc(Cl)ccc2oc1=O | i | 8.8% | 1.44
CN1CCC(NC(=O)c2cccs2)CC1 | i | 4.1% | -0.29
CCC(C)c1c(O)nc(SCC(=O)N2CCOCC2)[nH]c1=O (stereo not given) | i | 5.5% | -0.99
Cc1ccccc1-c1nc2ccccc2o1 | i | 4.9% | .
Cc1ccc2c(c1)N(CC(=O)N(Cc1ccc3c(c1)OCO3)CC1CCCO1)C(=O)C(C)O2 (stereo not given) | i | 1.6% | 1.28
COc1cc(NC(=O)CCCSc2nc(-c3ccco3)cc(C(F)(F)F)n2)cc(OC)c1OC | i | -2.6% | .
O=C(Nc1ccc(S(=O)(=O)N2CCc3ccccc32)cc1)c1ccc2c(c1)OCO2 | i | 6.8% | 0.63
Cn1c(-c2ccc3c(c2)OCO3)cnc1NCc1ccc(Cl)cc1 | i | 2.1% | 0.19
CCCC(=O)Nc1ccc(S(=O)(=O)Nc2cc(C)nc(C)n2)cc1 | i | -2.8% | -1.47
CCOC(=O)c1[nH]c(C)c(C(=O)NC2CCCC2)c1C | i | 0.2% | -0.41
Cc1occc1C(=O)Nc1cc(C(C)(C)C)on1 | i | -3.1% | 1.35
CCCOc1ccc(-c2nnn(CC(=O)OCC)n2)cc1 | i | 2.9% | -0.05
COc1nc(-c2ccccc2)cc(C(F)(F)F)n1 | i | 5.9% | -2.16
COc1ccc2oc(-c3ccccc3)c(C(N)=O)c2c1 | i | 0.0% | 0.38
N=c1oc2c3c4c(cc2cc1C(=O)Nc1ccccc1)CCCN4CCC3 | i | 156.3% | -1.12
CC1(C)Cc2c(c(-c3ccccc3Cl)[nH]c(=O)c2C#N)CO1 | i | 2.9% | -0.59
CS(=O)(=O)NC1c2cccc3cccc(c23)C1Sc1nncn1/N=C/c1ccco1 (stereo not given) | i | -3.1% | -0.61
Cc1ccc(NC(=O)CS(=O)CC(=O)NC2CCN(Cc3ccccc3)CC2)c(C)c1 (stereo not given) | i | -1.0% | 1.8
O=C(Cn1cc2c(n1)CCCCC2)Nc1ccc(F)cc1F | i | -1.9% | -0.32
O=C1Nc2cc(Cl)ccc2C1(N1CCNCC1)C(F)(F)F (stereo not given) | i | -3.9% | -0.56
Cc1ccc(-c2cc(C(=O)NCC3CCCO3)c3ccccc3n2)o1 (stereo not given) | i | 2.6% | .
Cn1nnnc1SCCNCc1cccnc1 | i | 4.5% | 0.59
O=C(CSc1n[nH]c(-c2cccs2)n1)NCc1cccs1 | i | -4.4% | -0.64

Sorted by SMILES length (falling): some entries from above
SMILES | MT1-MMP promoter | Hsc70 ATP site | WNV NS2B-NS3 inh
CS(=O)(=O)NC1c2cccc3cccc(c23)C1Sc1nncn1/N=C/c1ccco1 (stereo not given) | i | -3.1% | -0.61
N=c1oc2c3c4c(cc2cc1C(=O)Nc1ccccc1)CCCN4CCC3 | i | 156.3% | -1.12
Cc1ccc(-c2cc(C(=O)NCC3CCCO3)c3ccccc3n2)o1 (stereo not given) | i | 2.6% | .
O=C1Nc2cc(Cl)ccc2C1(N1CCNCC1)C(F)(F)F (stereo not given) | i | -3.9% | -0.56
O=C(CSc1n[nH]c(-c2cccs2)n1)NCc1cccs1 | i | -4.4% | -0.64
O=C(Cn1cc2c(n1)CCCCC2)Nc1ccc(F)cc1F | i | -1.9% | -0.32
COc1ccc2oc(-c3ccccc3)c(C(N)=O)c2c1 | i | 0.0% | 0.38
